Cruzain inh noDet: inhibitors of Trypanosoma cruzi cruzain without detergent. P25779. purified cruzain, Z-FR-AMC fluorescence, no detergent. Potency, µM, for the others: max response, negative = inhibition, actives largely listed as inhibitors. actives 2.3% (n = 200,000). AID 1476;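 further: plate controls were enzyme without inhibitor for no effect and buffer without enzyme for full effect; nearly all actives have a fitted effect of over 40% in size; top concentration of the series not given in the record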
Target sequence (P25779 123-467 limits assumed): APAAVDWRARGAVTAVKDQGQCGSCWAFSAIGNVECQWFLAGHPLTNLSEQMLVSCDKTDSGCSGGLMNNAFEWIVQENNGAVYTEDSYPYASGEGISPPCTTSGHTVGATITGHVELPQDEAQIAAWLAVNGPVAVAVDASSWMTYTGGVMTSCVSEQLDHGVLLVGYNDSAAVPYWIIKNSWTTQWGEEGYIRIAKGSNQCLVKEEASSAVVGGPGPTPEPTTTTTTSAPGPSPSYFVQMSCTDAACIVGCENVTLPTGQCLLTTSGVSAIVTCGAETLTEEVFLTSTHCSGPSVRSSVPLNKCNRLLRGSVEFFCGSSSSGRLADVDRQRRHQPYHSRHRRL
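Detergent-free condition (0.00005% Triton X-100) in acetate buffer pH 5.5 with DTT. 1.5 nM enzyme and compound were pre-mixed 15 min, then 2 uM Z-FR-AMC substrate added; reaction progress from fluorescence change between first and third reads (60 s).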
NS1 inh: influenza NS1 inhibition | actives 0.4% (n = 270,000) | S. cerevisiae slowed by influenza A NS1, growth recovery by OD600 | Potency, µM (doses to about 46.1 µM), inactives show at the top dose activity, positive = more growth | AID 2326; active means well fitted rising curve with a large enough effect; inconclusive means small, poorly fitted or top-dose-only effect; inactive means no such curve, though single readings can be large or run the other way; further: nearly all actives have a fitted effect of over 50% in size
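Read-out: OD600 growth recovery of NS1-expressing budding yeast. Cells grown overnight at 30C in -URA glucose medium, washed, resuspended and diluted 1:100 in 2% galactose assay medium, pH 6.0. Same strain lacking NS1 served as positive control.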
Lassa entry inh: blocks Lassa virus binding to or entry into cells. Lassa virus pseudotype entry inhibition, cell reporter; control for the full effect not named in the record. actives 1.2% (n = 300,000). AID 540256. Potency, µM (highest dose often 37.9 µM), for the others: top-dose activity change, negative = inhibition, actives largely listed as inhibitors; active means well fitted inhibition curve with a large enough effect; inconclusive means small, poorly fitted or top-dose-only effect, or effect the other way; inactive means flat fitted curve, though single readings scatter; tested in HEK293 cells; further: on the % scale 0 is the no-effect control and ±100 the full control effect; nearly all actives have a fitted effect of over 50% in size; luciferase read-out
Marburg entry inh: blocks Marburg virus binding to or entry into cells; Marburg virus pseudotyped entry inhibition, cell reporter; control for the full effect not named in the record; about a third of the inactives were read at about 46 µM; Potency, µM (titrated, usually from 37.8 µM), for the others: top-dose activity change, negative = inhibition, hits mostly inhibitors; actives 1.8% (n = 300,000); active = well fitted inhibition curve with a large enough effect; inconclusive = small, poorly fitted or top-dose-only effect, or effect the other way; inactive = flat fitted curve, though single readings scatter; tested in HEK293 cells; about a fifth of its hits are not listed in these tables; further: on the % scale 0 is the no-effect control and ±100 the full control effect; luciferase read-out
2A StopGo: lowers the luciferase signal of an FMDV 2A StopGo reporter. actives 1.2% (n = 410,000). AID 1159524. human cells with a luciferase reporter of 2A StopGo recoding; control for the full effect not named in the record. Potency, µM (top dose mostly 57.9 µM), without a hit: top-dose signal change, negative = less light; active = well fitted falling curve with a large enough effect; inconclusive = small, poorly fitted or top-dose-only effect; inactive = no such curve, though single readings can be large or run the other way; tested in HEK293T cells; further: on the % scale 0 is the no-effect control and ±100 the full control effect; nearly all actives have a fitted effect of over 45% in size; luciferase light after 4 h
SARS PLP yeast: SARS-CoV PLP inhibition in yeast. AID 485353. actives 0.19% (n = 330,000). S. cerevisiae expressing SARS-CoV PLpro, growth rescue; control for the full effect not named in the record. Potency, µM (top dose mostly 32.9 µM), inactives show at the top dose activity, positive = growth rescue; active means well fitted rising curve with a large enough effect; inconclusive means small, poorly fitted or top-dose-only effect; inactive means no such curve, though single readings can be large or run the other way; further: 0% is about no effect; nearly all actives have a fitted effect of over 55% in size; growth read by luminescence after 48 h
RE007 growth inh: less growth of the S. pombe RE007 Vpr strain | S. pombe RE007 Vpr strain, BacTiter-Glo ATP luminescence, 24 h; control for the full effect not named in the record | Potency, µM (highest dose often 92.2 µM), inactives show at the top dose activity change, negative = less growth | AID 651644 | actives 0.21% (n = 360,000); active = well fitted falling curve with a large enough effect; inconclusive = small, poorly fitted or top-dose-only effect; inactive = no such curve, though single readings can be large or run the other way;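 further: on the % scale 0 is the no-effect control and ±100 the full control effect; nearly all actives have a fitted effect of over 50% in size; the assay follows cell death caused by Vpr and the record does not say whether a fall means rescue or toxicity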
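Fission yeast RE007 carrying one integrated HIV-1 vpr copy, seeded at OD 0.01 in PMG+AL medium with 23 nL pinned compound. Grown 24 h at 30 degrees; viability read by BacTiter-Glo luminescence after 5 min.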
Cruzain inh Det: blocks cruzain activity in presence of Triton detergent; P25779; purified cruzain, Z-FR-AMC fluorescence, 0.01% Triton; Potency, µM, for inactives: max response, negative = inhibition, hits mostly inhibitors; actives 0.43% (n = 200,000); AID 1478;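 further: plate controls were neutral wells for no effect and buffer without enzyme for full effect; nearly all actives have a fitted effect of over 40% in size; top concentration of the series not given in the record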
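Detergent-containing arm of a paired screen for aggregation-based inhibition: 0.01% Triton X-100 present. Cruzain at 1.5 nM cleaved 2 uM Z-FR-AMC at pH 5.5 with 5 mM DTT; AMC fluorescence gain over 60 s measured activity.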
The depositor's hits bear a star; ? = inconclusive; · = not tested or not shown; [ ] = remark or other dose. Unless noted, the call rests on the fitted dose curve; in most records, active means well fitted curve in the direction sought with a large enough effect; inconclusive means small, poorly fitted or top-dose-only effect, or another doubt; inactive means no such curve, though single readings can be large; an effect the other way counts as inactive or inconclusive. Potency means the concentration at half of the fitted maximal effect.

Values run as follows: Cruzain inh noDet, NS1 inh, Lassa entry inh, Marburg entry inh, 2A StopGo, SARS PLP yeast, RE007 growth inh, Cruzain inh Det
> Cc1nn(-c2ccccc2)c2sc(C(=O)N(CC(=O)NC(C)(C)C)Cc3ccco3)cc12
    22%, -33%, ?, ?, -2%, -2%, 16%, -3.7%
> COc1ccc(NS(=O)(=O)c2ccc(NC(=S)NC(=O)c3cccc(F)c3)cc2)nn1
    5%, 0%, 8%, -1%, 33%[activator], -9%, 0%, -7.2%
> CC(C)CCNC(=O)c1cc2c(=O)[nH]c3ccccc3c2s1
    ·, -2%, ·, ·, 19%, 0%, 1%, ·
> COc1cc(C2=NOC(C(=O)NCc3ccco3)C2)cc(OC)c1OC (stereo unspecified)
    5%, -1%, ?, -13%, -13%, -4%, -17%, 2.6%
> CC1=CCC[C@@H]2[C@@](C)(CC/C(C)=C/C(=O)O)[C@H](C)CC[C@@]12C
    -3%, -11%, -4%, 19%, ?, -31%, 17%, -11%
> CN(C)S(=O)(=O)c1ccc(NC(=O)N2CCOCC2)cc1
    ·, ·, 2%[46.1 µM], 1%[46.1 µM], 2%, -1%, -7%, ·
> CCCCOC(=O)CSc1nnc(N)s1
    -1%, 8%, -9%, 2%, 2%, 0%, 11%, -3.1%
> C[C@@H](C(=O)N1CCNCC1)n1cc(CCCN=C(N)N)nn1
    ·, 2%, ·, ·, -12%, 0%, -8%, ·
> CCCCN1C(C(=O)c2ccccc2)=C(OC(=O)CC)c2ccccc2S1(=O)=O
    9%, ·, ?, 7.9µM*, 0%, ·, ·, -7.1%
> CC12CCC(=O)N1C(C(=O)Nc1ccc(Cl)c(S(=O)(=O)N3CCCCC3)c1)CS2 (stereo unspecified)
    ·, ·, -25%, ?, ?, 2%, -9%, ·
> CCOC(=O)Cc1c(C)nc2c(-c3ccc(Cl)cc3)c(C)nn2c1C
    ·, 0%, 0%, 4%[46.1 µM], 0%, -1%, 4%, ·
> O=[N+]([O-])c1ccc(O)c(/C=N/Nc2ccccn2)c1
    ?, -28%, ?, ?, -22%, ?, ?, 3.8%
> CCCN(CC(=O)Nc1ccccc1C)C(=O)c1cccc(S(=O)(=O)N2CCN(c3ccccc3)CC2)c1
    ·, ·, ?, ?, -13%, -2%, 0%, ·
> NC(=O)CSc1nc2ccccc2c(=O)n1-c1ccccc1
    ·, 11%, 10%, 8%, -2%, -4%, 4%, ·
> COc1ccc(C(=O)N(C)C2CCCN(Cc3ccccc3F)C2)cc1C (stereo unspecified)
    ·, 17%, ?, ?, 1%, 6%, -19%, ·
> COc1ccc2oc(-c3cccc(NC(=O)CSc4ccc(Cl)cc4)c3)nc2c1
    11%, 13%, -24%, ·, 13%, 7%, 5%, -1.8%
> COC(=O)c1cc(N=Nc2c(C)[nH]c3ccccc23)cc(C(=O)OC)c1
    ·, 3%, ·, ·, -22%, 2%, -9%, ·
> COc1cccc(C=NNC(=O)C(C)SC(C)C(=O)NN=Cc2cccc(OC)c2)c1 (stereo unspecified)
    ·, ·, -29%[46.1 µM], -18%[46.1 µM], -13%, ·, 9%, ·
> CC(NC(=O)C1CC12CCC2)c1ccccc1 (stereo unspecified)
    -11%, -2%, 5%, 13%, 9%, 9%, 16%, -1.9%
> Cc1ccc(S(=O)(=O)c2c(C)nn(C(C)(C)C)c2OC(=O)c2cccs2)cc1
    4%, 9%, 13µM*, ?, ?, -15%, -9%, -0.4%

Entries from the list above containing a tert-butyl group:
Values run as follows: Cruzain inh noDet, NS1 inh, Lassa entry inh, Marburg entry inh, 2A StopGo, SARS PLP yeast, RE007 growth inh, Cruzain inh Det
> Cc1nn(-c2ccccc2)c2sc(C(=O)N(CC(=O)NC(C)(C)C)Cc3ccco3)cc12
    22%, -33%, ?, ?, -2%, -2%, 16%, -3.7%
> Cc1ccc(S(=O)(=O)c2c(C)nn(C(C)(C)C)c2OC(=O)c2cccs2)cc1
    4%, 9%, 13µM*, ?, ?, -15%, -9%, -0.4%

Six structures from above, ordered by heavy-atom count, falling.
Values run as follows: Cruzain inh noDet, NS1 inh, Lassa entry inh, Marburg entry inh, 2A StopGo, SARS PLP yeast, RE007 growth inh, Cruzain inh Det
> COc1cccc(C=NNC(=O)C(C)SC(C)C(=O)NN=Cc2cccc(OC)c2)c1 (stereo unspecified)
    ·, ·, -29%[46.1 µM], -18%[46.1 µM], -13%, ·, 9%, ·
> Cc1ccc(S(=O)(=O)c2c(C)nn(C(C)(C)C)c2OC(=O)c2cccs2)cc1
    4%, 9%, 13µM*, ?, ?, -15%, -9%, -0.4%
> COc1ccc(C(=O)N(C)C2CCCN(Cc3ccccc3F)C2)cc1C (stereo unspecified)
    ·, 17%, ?, ?, 1%, 6%, -19%, ·
> COc1cc(C2=NOC(C(=O)NCc3ccco3)C2)cc(OC)c1OC (stereo unspecified)
    5%, -1%, ?, -13%, -13%, -4%, -17%, 2.6%
> CC(C)CCNC(=O)c1cc2c(=O)[nH]c3ccccc3c2s1
    ·, -2%, ·, ·, 19%, 0%, 1%, ·
> CN(C)S(=O)(=O)c1ccc(NC(=O)N2CCOCC2)cc1
    ·, ·, 2%[46.1 µM], 1%[46.1 µM], 2%, -1%, -7%, ·

Later entries.
Values run as follows: Cruzain inh noDet, NS1 inh, Lassa entry inh, Marburg entry inh, 2A StopGo, SARS PLP yeast, RE007 growth inh, Cruzain inh Det
> Cc1ccc(C(=O)NC(=S)N2CC(C)OC(C)C2)cc1[N+](=O)[O-] (stereo unspecified)
    4%, 1%, 1%, -5%, 43%[activator], 7%, 14%, 1.5%
> COc1cccc(C(=O)/C=C/Nc2ccc(S(=O)(=O)Nc3ncccn3)cc2)c1
    ?, 3%, 8%, 3%, 5%, 2%, 5%, -2.9%
> COc1cc(NC(=O)COc2ccc(-n3cnnn3)cc2)c(OC)cc1Cl
    0%, 13%, 2%, ?, -2%, -3%, 4%, 5.4%
> CN(C)S(=O)(=O)Oc1ccccc1C(=O)Nc1ccc(F)cc1F
    ·, -2%, 7%[46.1 µM], -21%[46.1 µM], -11%, 2%, 2%, ·
> O=C(Nc1ccccc1NC(=O)C1CCCO1)c1ccco1 (stereo unspecified)
    ·, 2%, -7%[46.1 µM], ?, -14%, 1%, -24%, ·
> C=CCOCCN1C(=O)C2C3C=CC(C2C1=O)C1C2C(=O)N(CCOCC=C)C(=O)C2C31 (stereo unspecified)
    ·, ·, -2%, 7%[46.1 µM], -3%, 2%, -9%, ·
> S=C(NCc1ccccc1)NCc1ccc(Cl)cc1
    ·, -14%, -24%[46.1 µM], -4%[46.1 µM], 1%, 13%, -5%, ·
> Cc1oc2cc3oc(=O)c(CCC(=O)NC4CC4)c(C)c3cc2c1C
    ·, 9%, ·, ·, -4%, -2%, 3%, ·
> Cc1ccc2nc(N3CCN(C(=O)c4cccs4)CC3)c(C#N)cc2c1
    -22%, -38%, -12%, 1%, ?, -5%, -17%, -6.9%
> CC(=O)c1cccc(NS(=O)(=O)c2ccc(N/C=C/C(=O)c3ccc(F)cc3)cc2)c1
    ?, ?, ?, -61%, ?, 4%, 1%, -8.4%
> CC(=O)c1cccc(N2C(=O)CC(N3CCN(S(=O)(=O)c4ccccc4F)CC3)C2=O)c1 (stereo unspecified)
    ·, ·, 0%[46.1 µM], 1%[46.1 µM], -12%, 0%, 3%, ·
> O=[N+]([O-])c1ccc2c(c1)[nH]c(=S)n2-c1ccccc1
    ·, 6%, ?, -29%[46.1 µM], 0%, 1%, 2%, ·
> Cc1ccc(S(=O)(=O)N2CCCCC2)cc1NC(=O)CSc1nnc(N)s1
    ·, 15%, ·, ·, -19%, -7%, -2%, ·

In a second layout: 2 of the compounds above.
SMILES	Cruzain inh noDet	NS1 inh	Lassa entry inh	Marburg entry inh	2A StopGo	SARS PLP yeast	RE007 growth inh	Cruzain inh Det
CC(=O)c1cccc(NS(=O)(=O)c2ccc(N/C=C/C(=O)c3ccc(F)cc3)cc2)c1	?	?	?	-61%	?	4%	1%	-8.4%
O=[N+]([O-])c1ccc2c(c1)[nH]c(=S)n2-c1ccccc1	·	6%	?	-29%[46.1 µM]	0%	1%	2%	·
